Assay outcomes from PubChem.
CtBP-E1A inh – blocks the CtBP interaction with E1A; AlphaScreen GST-E1A/His-CtBP binding, 1536-well; hits give low values; control for the full effect not named in the record; activity change, % (test concentration not listed); hit rate 0.49% among 340,000; in the data active means activity change below about -65%; inconclusive means about -30% to -65%; inactive means above about -30%; note: % is set by controls: 0 for no effect and ±100 for the full control effect; compound concentration not given in the record
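Protein mix (5X: 125 nM each GST-E1A, His-CtBP) was incubated with pinned compound 2 h at 37 deg C in dark, in 50 mM Tris pH 8.0 buffer with 300 mM NaCl. Glutathione donor and nickel acceptor beads followed; AlphaScreen signal read after 1 h.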
TRPML1 inh – inhibitors of human TRPML1 channel | Q9GZU1 | TRPML1-inducible cells, Ca2+ dye fluorescence, FDSS; hits give low values; inhibition of EC80 agonist-evoked calcium signal | activity change, negative = inhibition, % (concentration not given with the values) | hit rate 0.02% among 390,000 | AID 624415; in the data active means activity change below about -50%; inconclusive means about -30% to -50%; inactive means above about -30%;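 note: stimulus is agonist 54-4 at its EC80 concentration; % is set by controls: 0 for no effect and ±100 for the full control effect; compound concentration not given in the record; the text of the record puts the active cut at -80%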
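TRPML1-DL cells, Tet-induced overnight (~16 h, 37 °C) at 1,500 cells/well, were loaded with Ca8 no-wash dye plus quencher for 45-90 min at room temperature. Compounds were pinned during FDSS kinetic reading; agonist 54-4 at EC80 (4 uM final) then added.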
D2 agonist – activates the human D2 dopamine receptor; DiscoveRx PathHunter D2 beta-arrestin, luminescence, 90 min; 100% = 57 uM dopamine signal; activation, % (no concentration beside the values); hit rate 0.084% among 360,000; in the data active = activation above about 40%; inconclusive = about 15% to 40%; inactive = below about 15%; note: compound concentration not given in the record; the text of the record calls up to 30% inactive
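Agonist mode: compounds alone added to overnight-plated D2 PathHunter cells for 90 min at 37 C, with 57 uM final dopamine (EC100) defining full response. Beta-arrestin recruitment detected by chemiluminescent reagent, read after 1 h at ambient temperature.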
Six1-Eya2 blk – inhibitors of human Six1/Eya2 interaction; AlphaScreen GST-Six1/His-Eya2 binding, biochemical; hits give low values; control for the full effect not named in the record; activity change, % (concentration not given with the values); hit rate 0.56% among 360,000; in the data active = activity change below about -65%; inconclusive = about -30% to -65%; inactive = above about -30%; note: % is set by controls: 0 for no effect and ±100 for the full control effect
Target sequence (O00167 whole entry, looked up): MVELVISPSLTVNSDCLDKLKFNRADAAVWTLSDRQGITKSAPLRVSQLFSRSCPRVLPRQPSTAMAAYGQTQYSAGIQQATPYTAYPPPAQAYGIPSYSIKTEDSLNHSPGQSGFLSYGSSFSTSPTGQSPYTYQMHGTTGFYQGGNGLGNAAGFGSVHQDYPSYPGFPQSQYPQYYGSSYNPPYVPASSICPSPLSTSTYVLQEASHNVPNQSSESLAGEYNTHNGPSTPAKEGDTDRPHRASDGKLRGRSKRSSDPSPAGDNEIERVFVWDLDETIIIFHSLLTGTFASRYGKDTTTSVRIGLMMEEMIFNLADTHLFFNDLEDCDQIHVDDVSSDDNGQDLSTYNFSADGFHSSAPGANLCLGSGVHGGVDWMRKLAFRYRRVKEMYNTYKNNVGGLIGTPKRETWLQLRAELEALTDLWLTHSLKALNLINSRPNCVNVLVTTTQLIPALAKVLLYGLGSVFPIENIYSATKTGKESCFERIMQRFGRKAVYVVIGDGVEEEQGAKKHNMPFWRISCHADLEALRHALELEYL
Target sequence (Q15475 whole entry, looked up): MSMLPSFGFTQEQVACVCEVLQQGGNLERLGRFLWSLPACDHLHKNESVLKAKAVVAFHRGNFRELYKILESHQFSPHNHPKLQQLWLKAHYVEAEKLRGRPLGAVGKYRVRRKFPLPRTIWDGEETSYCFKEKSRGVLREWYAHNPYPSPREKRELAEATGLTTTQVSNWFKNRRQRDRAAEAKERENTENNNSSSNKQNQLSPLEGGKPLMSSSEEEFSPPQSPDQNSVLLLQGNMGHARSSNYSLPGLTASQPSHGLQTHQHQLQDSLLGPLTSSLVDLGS
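AlphaScreen luminescence read after one hour at 37 °C in darkness. Pin-transferred compounds met GST-Six1 and His-Eya2 protein (5X stock 250 nM/500 nM) plus glutathione donor and Ni-chelate acceptor beads (5X, 50 ug/mL).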
TRPML1 ag – human mucolipin-1 channel agonism. hit rate 0.12% among 410,000. activation, % (concentration not given with the values). TRPML1-expressing cells, Ca2+ dye fluorescence, FDSS; host cell line not named in the record; reference of the full effect not given here; in the data active = activation above about 50%; inconclusive = about 30% to 50%; inactive = below about 30%; note: 0% is about no effect; the text of the record puts the active cut at 80%
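Kinetic FDSS Ca2+ read in Tet-induced TRPML1-DL cells (ABD Ca8 dye plus quencher, 45-90 min RT loading): baseline, then compound, then 110 s agonist window; EC80 agonist 54-4 at 4uM final added afterwards for a 110 s antagonist window.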
PINK1 modulator – changes PINK1 expression | Potency, µM (doses to about 76.6 µM), for the others: at the highest dose activation (PINK1 increase), most hits filed as activators | AID 624263 | PINK1 immunofluorescence, high-content cytometry, 24 h | hit rate 0.2% among 410,000; active = well fitted activation curve with a large enough effect; inconclusive = small, poorly fitted or top-dose-only effect; inactive = flat fitted curve, though single readings scatter; cell line not stated here;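 note: potency is the fitted concentration of half-maximal effect; % of control where 0% means no effect; nearly all actives have a fitted effect of over 65% in size; a mitochondrial uncoupler was the plate control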
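Readout is PINK1 immunofluorescence, quantified alongside mitochondrial, cell and nuclear markers by laser-scanning microplate cytometry. Cells from a stable line were exposed to compound titrations (5 concentrations) for 24 hours, with CCCP controls.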
The depositor's hits bear a star; ? = inconclusive; . = no result given; [ ] = remark or other dose.

SMILES	CtBP-E1A inh	TRPML1 inh	D2 agonist	Six1-Eya2 blk	TRPML1 ag	PINK1 modulator
CC1(c2cccc(Br)c2)NC(=O)N(CC(=O)Nc2ccc(F)cc2)C1=O (stereo not given)	1	-18	1.6	0	0.2	6.7%
COc1ccccc1NC(=O)Cn1nc(-c2ccc(C)cc2)c2c(c1=O)CCCC2	.	-8	.	.	1.3	0.0%
Cc1cc(=O)oc2cc(OC(=O)c3nn(C(C)C)c(=O)c4ccccc34)ccc12	13	13	-4.0	5	0.5	1.9%
CCCC(=O)N1CCC1(C)C(=O)Nc1ccc2scnc2c1 (stereo not given)	11	.	-3.6	3	-0.4	0.2%
COc1ccc(-n2c(=O)/c(=C\c3cccs3)s/c2=C(/C#N)C(=O)N2CCN(C)CC2)cc1	0	-7	-4.8	-1	-0.1	5.7%
O=C(CCOc1ccccc1)Nc1ccc(S(=O)(=O)N2CCCC2)cc1	-9	-2	0.5	2	0.4	1.8%
CCc1nc2c(OCc3ccc(C(=O)OC)cc3)cccn2c1N(C)C(=O)c1ccc(C)cc1	-11	.	-6.5	-4	-0.6	1.1%
CC(Oc1ccccc1)C(=O)Nc1cccc(-c2cn3cccnc3n2)c1 (stereo not given)	.	9	.	.	-0.4	0.1%
COc1ccc(C(NC(=O)c2ccc(-c3ccccc3)cc2)c2ccccc2)cc1 (stereo not given)	3	-19	-4.1	2	-0.4	15%
Cc1coc(NC(=O)CSc2nc(-c3ccc(Cl)cc3)cc(C(F)(F)F)c2C#N)n1	-3	-11	-0.2	6	3.6	3.8%[38.3 µM]
CC(C)c1nc(NCCO)c2nnn(Cc3ccccc3)c2n1	7	-2	-0.1	0	-1.6	0.4%
CSc1c(CN2CCN(C)CC2)c2ccccc2n1C	6	1	1.6	8	0.5	1.3%
CC(=O)c1ccc(N2CCN(C(=O)C(=O)c3c(C)[nH]c4ccccc34)CC2)cc1	0	11	1.4	-11	0.6	1.7%
Cn1c(=O)oc2cc(S(=O)(=O)N3CCN(c4cccc(Cl)c4)CC3)ccc21	0	-18	-1.7	21	0.9	8.5%
COCCN(CCOC)c1nc(-c2ccc(Cl)cc2)nc2ccccc12	2	28	-6.8	13	1.5	3.5%
COCC(=O)Nc1cc(Cl)ccc1C	23	35	-2.0	8	1.2	-0.3%
CCc1nc2sc3c(=O)[nH]cnc3c2c2c1CSC(C)(C)C2	-1	18	-2.7	-18	0.7	0.9%
Cc1c(Br)c([N+](=O)[O-])nn1CCCC(=O)N1CCN(c2ccccc2)CC1	6	-7	0.3	-9	0.0	1.8%
COc1cc(NC(=O)c2nnn(Cc3ccc(F)cc3)c2N)cc(OC)c1	.	-6	.	.	0.5	6.5%
COc1ccc(-c2cnc3n2CCCCC3)cc1	5	3	-1.3	-23	-0.5	-1.5%
COC(=O)[C@@]12CCCN1[C@H](c1ccc(-c3ccc(OC)cc3)cc1)[C@@H]1C(=O)N(C)C(=O)[C@@H]12	4	-5	-1.2	-5	-0.6	-0.9%
COc1ccccc1-c1ccc(SCC(=O)N2CCOCC2)nn1	1	8	1.1	8	-0.2	-1.4%
CCC(NC(=O)CCl)c1ccc(C)cc1 (stereo not given)	8	-1	-0.4	3	-0.2	-0.8%
COc1ccc(OCC(O)CN(CCO)CC(O)Cn2ccc3ccccc32)cc1 (stereo not given)	-13	-4	-1.8	-9	-0.1	2.4%

Pulled one by one from the entries so far:
SMILES	CtBP-E1A inh	TRPML1 inh	D2 agonist	Six1-Eya2 blk	TRPML1 ag	PINK1 modulator
COCCN(CCOC)c1nc(-c2ccc(Cl)cc2)nc2ccccc12	2	28	-6.8	13	1.5	3.5%
Cc1c(Br)c([N+](=O)[O-])nn1CCCC(=O)N1CCN(c2ccccc2)CC1	6	-7	0.3	-9	0.0	1.8%

(cont.)
SMILES	CtBP-E1A inh	TRPML1 inh	D2 agonist	Six1-Eya2 blk	TRPML1 ag	PINK1 modulator
COc1ccccc1NS(=O)(=O)c1cc(NC(=S)NCCN2CCOCC2)ccc1N1CCOCC1	-1	-20	0.7	-8	0.3	0.2%
C[C@H](NC(=O)C1CCN(S(=O)(=O)c2ccccc2)CC1)C(=O)NCc1ccco1	-11	2	2.5	-6	0.7	-1.6%
Cc1nc(SCc2ccccc2)nc2c1CCC2	24	-7	-7.6	19	0.1	-1.3%
COc1ccc(CCNc2ccc(N3C(=O)CC(C)C3=O)cc2[N+](=O)[O-])cc1OC (stereo not given)	17	-8	-3.5	1	-0.5	1.1%
Cc1cc(C(=O)OCC(=O)N2CCc3ccccc32)ccc1[N+](=O)[O-]	3	27	-5.7	-5	-0.6	6.7%
CCn1c(SCC(=O)Nc2ccc(Br)cn2)nnc1C1CC1	1	-13	-0.1	-5	0.3	3.1%
Cc1sc2nc(CN3CCCC3)nc(N3CCN(S(=O)(=O)c4cccc(F)c4)CC3)c2c1C	-4	-8	5.0	2	-0.8	2.4%
N#Cc1ccc(CSc2nnc(-c3cnccn3)o2)cc1	4	4	-5.4	-2	-0.3	-0.8%
Cc1ccc(C(=O)Nc2nc(-c3ccccc3)ns2)cc1	.	16	.	.	3.0	14%
Cc1nc(NC(=O)/C=C/c2ccc(C(C)(C)C)cc2)sc1C(=O)N(C)C	1	23	0.3	4	0.4	6.7%
Cc1ccc(N2C(=O)[C@@H]3[C@H](C2=O)[C@H]2C=CC=NN2[C@@H]3C(=O)Nc2ccccc2)cc1	-3	-5	0.0	-9	0.8	-1.3%
O=C(OCC(=O)C12CC3CC(CC(C3)C1)C2)c1ccccn1	-8	-3	-1.3	-1	0.4	-0.2%
O=C(Nc1cccc(-c2nnc(-c3ccco3)o2)c1)C(c1ccccc1)c1ccccc1	-6	14	-0.3	0	-0.4	1.0%
CCCN(CCC)C(=O)c1nn(C)c2c1CSc1ccccc1-2	.	2	.	.	0.7	6.6%
Cc1ccc(CCNC(=O)C2=CCN(S(=O)(=O)c3ccccc3)CC2)cc1	2	-6	-4.9	3	-1.2	1.2%
CC1(C)CC(=O)C(C=NCCN2CCN(C3CC(=O)N(c4ccc(F)cc4)C3=O)CC2)=C(O)C1 (stereo not given)	-1	12	1.2	4	-0.3	-0.3%
COc1ccc(-c2c3c([nH]c(=S)c2C#N)CCC3)cc1	-1	-3	0.2	-1	-0.8	-0.1%
CCC(CC)c1nnc(NC(=O)c2cc(C(=O)OC)cc([N+](=O)[O-])c2)s1	-9	-4	-7.0	6	-0.3	1.4%
COC(=O)C1CCN(C(=O)c2sc3nc(-c4ccccc4)cn3c2C)CC1	6	22	-0.2	-1	-0.1	.
COCCN(Cc1cc2cc(C)ccc2n2nnnc12)C(=S)Nc1ccc(C)cc1	.	5	2.3	1	1.5	1.8%
Cc1cccc(CN2C(=O)c3ccccc3S(=O)(=O)c3ccc(C(=O)NCCC4=CCCCC4)cc32)c1	.	-15	.	.	-0.2	1.0%
CCC(Nc1ccc(-c2nc(-c3ccccn3)no2)cc1[N+](=O)[O-])c1ccccc1 (stereo not given)	.	-7	.	.	-0.4	-0.6%
Cc1ccc(S(=O)(=O)CCC(=O)OCC(=O)NNC(=O)c2ccc([N+](=O)[O-])cc2)cc1	-2	53	-3.0	5	-0.4	-1.4%
COc1ccccc1/C=C/C(=O)NCC(=O)N=Nc1c(O)[nH]c2ccccc12	.	-10	-6.8	-9	-1.2	0.5%

One compound at a time, as listed above.
`Cc1ccc(CCNC(=O)C2=CCN(S(=O)(=O)c3ccccc3)CC2)cc1` reads CtBP-E1A inh = 2; TRPML1 inh = -6; D2 agonist = -4.9; Six1-Eya2 blk = 3; TRPML1 ag = -1.2; PINK1 modulator = 1.2%
`COc1ccccc1/C=C/C(=O)NCC(=O)N=Nc1c(O)[nH]c2ccccc12` reads CtBP-E1A inh = .; TRPML1 inh = -10; D2 agonist = -6.8; Six1-Eya2 blk = -9; TRPML1 ag = -1.2; PINK1 modulator = 0.5%

Following part
SMILES	CtBP-E1A inh	TRPML1 inh	D2 agonist	Six1-Eya2 blk	TRPML1 ag	PINK1 modulator
O=C1CC2(CCN(C(=O)c3ccccc3Cl)CC2)Oc2ccccc21	-7	-11	-2.4	0	-0.4	-1.1%
CCOCCCN(C)C1CCN(C(=O)c2oc3ccccc3c2NC(=O)Cc2ccc(F)cc2)CC1	-7	-1	-2.6	-1	-0.6	-0.7%
COc1ccc(-n2nc(C(=O)O)c3ccccc3c2=O)c(OC)c1	11	10	-0.2	4	0.6	.
O=C(NC1CC1)c1cccc(Br)c1	2	-16	-2.6	-6	-0.4	2.7%
COc1ccc(NC(=O)CN(c2ccccc2)S(=O)(=O)c2ccccc2)c(OC)c1	.	21	-2.0	-12	2.1	3.6%
COc1ccc(S(=O)(=O)N2CCC(C(=O)NCc3ccncc3)CC2)cc1Cl	-8	-6	0.4	0	-0.1	8.6%
NNC(=S)Nc1ccc(Cl)cc1	-12	-15	3.1	-12	-0.6	4.2%
Cc1ccc(C)c(-n2c(-c3cccnc3)n[nH]c2=S)c1	6	29	-1.4	3	-0.2	0.6%
COc1ccc(CNC(=O)C2CCN(S(=O)(=O)c3c(C)n[nH]c3C)CC2)cc1	-4	-7	-9.5	19	-0.2	-2.2%
O=C(CSc1nnc(-c2ccccc2)n1Cc1ccco1)Nc1ccc2c(c1)OCCO2	-7	-10	0.0	-3	1.8	-1.1%
COc1ccc(CNC(=O)CCc2c(C)nn(-c3ccc(N4CCOCC4)nn3)c2C)c(OC)c1	.	-3	.	.	0.2	1.2%
CC1=NN(C(C#N)c2ccccc2O)C(C)(C)C1 (stereo not given)	-17	0	6.0	1	1.6	0.3%
COc1ccc(S(=O)(=O)Nc2ccc3c(c2)OCO3)cc1Cl	5	0	-0.3	-9	0.1	1.9%
CN(c1ccccc1)c1cc(Br)nc(Br)c1	20	11	-0.5	3	0.5	-0.5%
CCn1c(-c2ccccc2O)n[nH]c1=S	-10	?	-3.0	-2	0.0	20%[38.3 µM]
CC(C)(C)OC(=O)C[C@@H]1C/C=C\C[C@H](CC(=O)N(CCO)Cc2ccccc2)C(=O)N2CCC[C@@H]2COC1=O	7	4	-2.8	2	-0.4	-0.6%
COc1ccccc1/C=N/N1CCN(Cc2ccccc2Cl)CC1	-27	6	-2.3	?	1.0	0.9%
Cc1ccc(-c2onc3ccc(C4(C)OCCO4)cc23)cc1	-2	24	13	4	5.1	0.0%
O=C(NCc1ccccc1Cl)c1ccc2c(c1)N(Cc1ccccc1)C(=O)c1ccccc1S2	.	64	.	.	0.7	0.7%
COC(=O)c1ccc2c(=O)[nH]c(CSc3nc(-c4ccc(F)cc4)cs3)nc2c1	2	36	-3.9	6	-0.3	8.8%
C=CCNC(=S)N/N=C/c1cccc([N+](=O)[O-])c1	-9	-9	-2.2	-14	-0.8	1.2%
O=S(=O)(Nc1cccc2ncccc12)c1cccs1	-90*	19	-9.7	-92*	0.3	4.7%
CCOc1ccc(OCC)c(NC(=O)CSc2nnnn2CC)c1	-3	-7	-3.2	-1	0.8	-0.8%
Cc1cn([C@H]2C[C@H](O)[C@@H](CNCc3ccc(CN(C)S(C)(=O)=O)o3)O2)c(=O)[nH]c1=O	3	.	2.3	-1	.	1.0%
